# From PubChem BioAssay
# HIV Env fusion = inhibitors of HIV-1 Env-driven cell-cell fusion, primary screen, HeLa-JRFL effector, CEM21 target cells, luciferase; 360,000 tested, 1.1% active; inhibition, % at 12.3 µM;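 active = mean replicate inhibition score of at least 50 and every replicate individually at or above 50; inconclusive = only one of the two criteria met; inactive = mean below 50 and not all replicates reaching 50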;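 also: 0% = plate neutral controls and 100% = maraviroc near 300 nM; one replicate is shown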
# CSC inhib = cancer stem cell viability inhibitors, primary screen, luminescence; cancer stem cell-like cells viability; inhibition, % at 7.5 µM; 300,000 tested, 1.1% active;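 active = mean at 75% or more and at least half the replicates too; inconclusive = mean and replicates disagree; tested in HMLE shEcad cells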;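 also: 0% = median of negative and 100% = median of positive control wells; the first replicate is given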
# PABP FP inh = PABP poly(A) RNA binding inhibitors, primary screen, biochemical, fluorescence polarization, uHTS; Polyadenylate-binding protein 1 (Homo sapiens), P11940; inhibition, % at 35 µM; 290,000 tested, 1% active; AID 2014, 2009;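 active = 50% or more with normal probe brightness, or confirmed in later tests; inconclusive = above 50% with abnormal brightness, or retests that disagree; inactive = below 50% or failed in later tests; about a fifth of its hits are not listed in these tables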;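 also: calls also rest on retests at 20 µM and on dose response follow-up; controls were probe without protein and protein plus probe with vehicle; some compounds called inactive have numbers as strong as hits; many hits fall short of the cut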
# Rce1 inh = yeast Rce1p protease inhibitors, primary screen, biochemical, fluorescence, cell-free homogeneous. AID 2563, 2010. calls only. 290,000 tested, 0.27% active. yeast membranes, quenched prenylated peptide cleavage fluorescence;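 active = fall in fluorescence gain of 50% or more versus controls, with final raw signal at or below 3038400; inconclusive = same 50% fall but final raw signal above 3038400; inactive = fall in fluorescence gain under 50%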;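 also: plate controls were neutral control wells for no effect and wells lacking membranes for full effect; tested at 10 µM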
# Target sequence (Q03530 whole entry, looked up): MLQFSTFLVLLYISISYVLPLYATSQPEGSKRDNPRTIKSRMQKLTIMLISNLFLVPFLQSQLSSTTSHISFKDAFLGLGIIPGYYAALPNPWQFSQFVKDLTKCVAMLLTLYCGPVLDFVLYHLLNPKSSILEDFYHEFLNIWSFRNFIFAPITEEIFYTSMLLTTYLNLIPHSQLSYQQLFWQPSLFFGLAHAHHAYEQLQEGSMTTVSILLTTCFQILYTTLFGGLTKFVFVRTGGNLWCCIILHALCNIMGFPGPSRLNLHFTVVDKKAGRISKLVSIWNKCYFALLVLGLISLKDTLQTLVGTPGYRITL
# eIF4H FP inh = human eIF4H binding inhibitors, primary screen, translation initiation inhibitor project, biochemical, uHTS, fluorescence polarization | eIF4H fluorescence polarization binding assay | inhibition, % at 35 µM | 290,000 tested, 0.94% active;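 active = 50% or more with normal probe brightness, or confirmed in later tests; inconclusive = above 50% with abnormal brightness, or retests that disagree; inactive = below 50% or failed in later tests; about a fifth of its hits are not listed in these tables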;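 also: calls also rest on retests at 20 µM and on dose response follow-up; 0% = protein and probe with vehicle and 100% = probe without protein; strong numbers were not always called active; many hits fall short of the cut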
# UUG fidelity = modulators of yeast start codon fidelity, primary screen, whole organism, S. cerevisiae, single point, plate reader | S. cerevisiae UUG-firefly luciferase reporter, luminescence/redox ratio | activity score, % at 18.7 µM | 350,000 tested, 0.13% active | AID 602363, 2012;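 active = replicate mean at a twofold rise or more, about +100% in these data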;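 also: firefly luciferase made from a UUG start codon reports start codon fidelity; reporter light over untreated wells divided by growth signal over untreated wells; some hits fall short of that in this replicate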
# MT1-MMP act inh = blockers of MT1-MMP proenzyme processing, primary screen, HT1080 RFP-PRO-GFP cells, GFP/RFP fluorescence; Matrix metalloproteinase-14 (Homo sapiens), P50281; GFP/RFP ratio fluorescence, overnight; percent of plate control window, DMSO zero; GFP/RFP ratio change, % at 20 µM; 360,000 tested, 0.061% active;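 active = GFP/RFP ratio change of at least 30% with cell ATP level not reduced by more than half and red fluorescence within 50% of control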; also: strong numbers were not always called active
#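 Material – HT1080 RFP-PRO-GFP cells · Control set – DMSO wells and RFP-L50D-GFP cells · Incubation – overnight cell settling, then overnight compound exposure, 37 °C, 5% CO2 · Compound dosing – single-point 20 µM compound, 1% DMSO · Read-out – GFP/RFP fluorescence ratio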
# eIF4H FP inh retest = recorded beside eIF4H FP inh, whose call it bears; inhibition, %; compound at 20 µM; confirmation average;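 mean of two retest wells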
# PABP FP inh retest = recorded beside PABP FP inh, whose call it bears; inhibition, %; compound at 20 µM; confirmation repeats;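 mean of two retest wells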
# MT1-MMP act inh RFP = recorded beside MT1-MMP act inh, whose call it bears; RFP signal change, %; measured here: RFP expression control read;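 0 = vehicle wells; hits needed this value within 50% of zero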
# Numbers without * were called inactive; i = inactive; ? = inconclusive; / = not tested or not shown; & = joins results of further samples; [ ] = another dose, or the depositor's remark.
SMILES,HIV Env fusion,CSC inhib,PABP FP inh,Rce1 inh,eIF4H FP inh,UUG fidelity,MT1-MMP act inh,MT1-MMP act inh RFP,others
CC1(C)CC(=O)C(C=NCC2CCN(C(=S)Nc3ccccc3)CC2)=C(O)C1,14.6,-24.8,9.6,i,23.5,-30.0,1.2,-1.3,
CCC(C)(C)n1nnnc1C(c1cc2cccc(C)c2[nH]c1=O)N1CCN(C(=O)c2ccco2)CC1 (stereo not given),-15.9,2.7,40.3,i,-4.8,-7.0,-4.6,-5.1,
CCOc1ccc(S(=O)(=O)N(C(=O)c2ccco2)c2cc3sc(=O)oc3c3ccccc23)cc1,-8.8,64.0,-2.1,i,8.6,/,3.3,7.1,
NNC(=O)c1cc2sccc2s1,-17.8,20.4,3.5,i,-2.2,-20.5,-2.7,1.6,
CN(Cc1ccccc1)S(=O)(=O)c1ccc(NC(=S)NC(=O)C(C)(C)C)cc1,/,/,-0.7,i,1.5,-16.0,-2.0,-0.9,
O=C(N[C@@H]1CC[C@@H](CCn2cc(-c3ccccc3)nn2)O[C@@H]1CO)c1cnccn1,9.4[16.7 µM],/,/,/,/,-0.8,-1.0,-2.6,
C[C@H](CO)N1C[C@H](C)[C@@H](CN(C)Cc2ccc(C(=O)O)cc2)Oc2c(NC(=O)C3CC3)cccc2C1=O,-10.0[16.7 µM],/,/,/,/,2.6&-8.8,0.4,5.3,
O=C(COc1ccc2c3c(c(=O)oc2c1)CCCC3)NCCN1CCOCC1,/,3.2,/,i,/,-9.3,2.9,5.1,
Cc1ccc(-n2cc(-c3ccccc3)c3c(=O)[nH]cnc32)cc1,/,-12.5,1.4,i,10.3,-31.3,-1.8,0.1,
Oc1c(C=Nc2ccccc2)sc(=S)n1Cc1ccccc1,-20.7,0.2,?,i,?,/,-12.4,4.5,
COc1ccc(S(=O)(=O)N2CCN(Cc3ccc4c(c3)OCO4)CC2)c2ccccc12,15.4,14.6,-0.4,i,-0.1,-9.1,9.7,-0.5,
O=S(=O)(c1c(F)cccc1F)N1CCN(Cc2c(O)ccc3ccccc23)CC1,-14.0,-11.4,/,/,/,-21.8,-4.0,-2.8,
CCCCNC(=O)c1cccc(S(=O)(=O)N2CC3(C)CC2CC(C)(C)C3)c1 (stereo not given),25.2,/,/,/,/,-4.4,-13.0,-13.7,
COCCNC(=S)Nc1cc(OC)c(NC(=O)c2ccco2)cc1OC,17.2,-18.9,-0.1,i,-0.2,-18.9,-0.3,1.0,
N#Cc1ccc(C(=O)NC23CC4CC(CC(C4)C2)C3)cc1,12.1,-8.5,-9.5,i,-8.0,-11.0,-0.8,-2.8,
Nc1nnnn1/N=C/c1cccc(Br)c1,-17.5,-15.7,3.1,i,3.4,-7.5,-0.7,0.3,
O=S(=O)(Nc1cccc2nsnc12)c1ccccc1,6.2,-1.2,2.1,/,-4.9,-14.2,-5.3,4.0,
COc1ccc(-c2sc3ccc(OC)cc3c2C#Cc2cncn2C)cc1,-6.4,/,/,/,/,-12.3,-5.5,-2.8,
Cn1c(C(=O)NCc2ccccn2)cc2c(=O)n(C)c3ccccc3c21,-29.4,12.9,-2.4,i,-7.5,-37.1,3.0,4.5,
COCCNc1nc(C)cc(-c2cc(-c3ccc(Cl)cc3)on2)n1,-4.2,16.0,-7.7,i,2.0,-9.6,5.5,0.4,

# Random excerpt: 2 records from the list.
SMILES,HIV Env fusion,CSC inhib,PABP FP inh,Rce1 inh,eIF4H FP inh,UUG fidelity,MT1-MMP act inh,MT1-MMP act inh RFP,others
Cc1ccc(-n2cc(-c3ccccc3)c3c(=O)[nH]cnc32)cc1,/,-12.5,1.4,i,10.3,-31.3,-1.8,0.1,
O=S(=O)(Nc1cccc2nsnc12)c1ccccc1,6.2,-1.2,2.1,/,-4.9,-14.2,-5.3,4.0,

# 3 successive compounds already listed, for reference:
SMILES,HIV Env fusion,CSC inhib,PABP FP inh,Rce1 inh,eIF4H FP inh,UUG fidelity,MT1-MMP act inh,MT1-MMP act inh RFP,others
COc1ccc(-c2sc3ccc(OC)cc3c2C#Cc2cncn2C)cc1,-6.4,/,/,/,/,-12.3,-5.5,-2.8,
Cn1c(C(=O)NCc2ccccn2)cc2c(=O)n(C)c3ccccc3c21,-29.4,12.9,-2.4,i,-7.5,-37.1,3.0,4.5,
COCCNc1nc(C)cc(-c2cc(-c3ccc(Cl)cc3)on2)n1,-4.2,16.0,-7.7,i,2.0,-9.6,5.5,0.4,

# Structures shown so far with a halogen (3):
SMILES,HIV Env fusion,CSC inhib,PABP FP inh,Rce1 inh,eIF4H FP inh,UUG fidelity,MT1-MMP act inh,MT1-MMP act inh RFP,others
O=S(=O)(c1c(F)cccc1F)N1CCN(Cc2c(O)ccc3ccccc23)CC1,-14.0,-11.4,/,/,/,-21.8,-4.0,-2.8,
Nc1nnnn1/N=C/c1cccc(Br)c1,-17.5,-15.7,3.1,i,3.4,-7.5,-0.7,0.3,
COCCNc1nc(C)cc(-c2cc(-c3ccc(Cl)cc3)on2)n1,-4.2,16.0,-7.7,i,2.0,-9.6,5.5,0.4,

# The main list resumes; the three compounds before the break are reprinted first.
SMILES,HIV Env fusion,CSC inhib,PABP FP inh,Rce1 inh,eIF4H FP inh,UUG fidelity,MT1-MMP act inh,MT1-MMP act inh RFP,others
COc1ccc(-c2sc3ccc(OC)cc3c2C#Cc2cncn2C)cc1,-6.4,/,/,/,/,-12.3,-5.5,-2.8,
Cn1c(C(=O)NCc2ccccn2)cc2c(=O)n(C)c3ccccc3c21,-29.4,12.9,-2.4,i,-7.5,-37.1,3.0,4.5,
COCCNc1nc(C)cc(-c2cc(-c3ccc(Cl)cc3)on2)n1,-4.2,16.0,-7.7,i,2.0,-9.6,5.5,0.4,
O=C(CCl)N1N=C(c2ccco2)CC1c1ccco1 (stereo not given),21.7,7.6,31.0*,i,53.9*,-3.1,/,/,eIF4H FP inh retest=94.6*;PABP FP inh retest=68.4*
COc1ccc2c(-c3cc4ccc(OCc5ccc(F)cc5)cc4oc3=O)cc(=O)oc2c1,-36.7,10.5,0.7,i,2.6,/,-5.1,-8.7,
O=C(NNC(=O)c1cccc(C(F)(F)F)c1)c1ccc(-n2cnnn2)cc1,4.9,-6.3,/,/,/,0.1,1.6,1.8,
Cc1c(C(=O)OC2CCCC2C)[nH]c2c1C(=O)CCC2 (stereo not given),-51.5,2.4,-14.8,i,2.0,-4.6,-13.5,-15.5,
Cc1c(Br)c([N+](=O)[O-])nn1C(C)C(=O)NCc1cccnc1 (stereo not given),-32.8,7.8,1.1,i,-10.0,-3.9,-0.3,5.6,
CSc1ncnc2c1ncn2CCCNCc1cccs1,0.7,/,/,/,/,-6.2,-0.5,5.9,
O=C(O)C(Cc1c[nH]c2ccccc12)NS(=O)(=O)c1ccc(F)cc1 (stereo not given),20.6,/,/,/,/,-1.6,0.1,6.6,
O=C1c2ccccc2NC(c2ccc(F)cc2)N1Cc1ccccc1 (stereo not given),6.6,12.7,5.4,i,-12.0,9.3,1.2,-4.6,
O=C(O)c1ccc(S(=O)(=O)N(Cc2ccc(F)cc2)C2CCCCC2)cc1,13.2,2.4,1.7,i,-3.9,-14.9,1.0,5.8,
CCC(C)NC(=S)N(CCc1ccccc1)Cc1cc2cc(OC)c(OC)cc2[nH]c1=O (stereo not given),-4.5,1.7,-0.2,i,0.6,-27.8,-8.5,-10.6,
COc1cc(-c2nc(-c3ccc(NC(=O)c4ccc(Br)o4)cc3)no2)cc(OC)c1OC,11.2,76.9*,-27.7,i,-11.4,-1.4,0.3,-14.7,
CC(C)(C)C1CCc2[nH]nc(C(=O)O)c2C1 (stereo not given),/,/,6.0,/,0.2,/,0.9,8.2,
CCOC(=O)c1sc(N(Cc2ccccc2)C(=O)COC(=O)c2cnccn2)nc1C,8.4,-29.4,-2.4,i,-5.0,/,-2.6,-3.7,
Oc1ccc(-c2csc(-c3cccnc3)n2)cc1O,-24.9,54.4,0.8,i,-4.3,-20.1,-2.1,-12.6,

# This is a subset; the hit share may differ from the screen's.
